Compound activity from PubChem BioAssay.
PKD1 kinase inh: inhibitors of human PKD1 kinase; Q15139; PKD1 kinase fluorescence polarization assay; inhibition, %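 (about 10 µM by stock and volumes)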; 0.056% of 200,000 active;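 active = inhibition of 50% or more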;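 also: controls were vehicle for no effect and a reference inhibitor for full effect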
GALR2 agonist: agonists of human galanin receptor 2 (GALR2) | AID 803 | activation, %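 (tested at 5 µM)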 | 0.48% of 140,000 active | GALR2-expressing cells, agonist activation read-out;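 active = above mean plus 3 SD of all compounds, about 5% in these data, not always enough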;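 also: 0% = vehicle buffer wells and 100% = reference agonist at full effect; tested in CHO reporter cells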
Target sequence (O43603 whole entry, looked up): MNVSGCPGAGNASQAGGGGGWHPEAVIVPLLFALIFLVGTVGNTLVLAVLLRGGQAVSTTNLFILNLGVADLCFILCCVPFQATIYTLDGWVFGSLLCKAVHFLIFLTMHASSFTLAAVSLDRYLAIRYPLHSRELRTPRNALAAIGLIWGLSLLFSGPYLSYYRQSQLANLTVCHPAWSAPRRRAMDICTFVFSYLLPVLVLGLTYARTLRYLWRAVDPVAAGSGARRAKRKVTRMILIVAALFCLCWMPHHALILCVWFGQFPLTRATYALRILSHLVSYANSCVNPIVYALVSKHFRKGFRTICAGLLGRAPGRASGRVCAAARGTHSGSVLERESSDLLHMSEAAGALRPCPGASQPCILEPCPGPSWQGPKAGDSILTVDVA
HSV replic up: increases HSV replication in cells. HSV replication augmentation in cells, fold increase. maximum fold increase. 0.005% of 220,000 active. AID 1956;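 active = peak rise of 1.5-fold or more in the series; tested in PC3 cells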;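 also: first round at 10 µM; read as green reporter fluorescence; hits show the peak of a series up to 25 µM; 1 = signal of infected wells without compound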
INS promoter inh: TRM-6 insulin promoter activity inhibition. TRM-6 cells (human fetal islet line), insulin promoter-eGFP reporter, imaging; reporter expression induced with tamoxifen. inhibition, % at 2 µM. 0.9% of 130,000 active;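 active = inhibition above the mean plus 3 SD, with well images judged a real hit on visual review, cut at about 60% in these data, passing the limit was not always enough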
RGS16-Gao: regulators of human RGS16-Galphao interaction; O15492+P09471; bead-based flow cytometry RGS16-Galphao binding, fluorescence; actives lie on both sides; 0.38% of 220,000 active; binding response (% of control), % at 10 µM;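 active = below 25% or above 175%, edge rows of some plates excepted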;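 also: Galphao activated by GDP with aluminum fluoride before binding; 100% = wells without compound and 0% = beads without RGS; some results beyond the cut were filed as inactive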
Target sequence (O15492 whole entry, looked up): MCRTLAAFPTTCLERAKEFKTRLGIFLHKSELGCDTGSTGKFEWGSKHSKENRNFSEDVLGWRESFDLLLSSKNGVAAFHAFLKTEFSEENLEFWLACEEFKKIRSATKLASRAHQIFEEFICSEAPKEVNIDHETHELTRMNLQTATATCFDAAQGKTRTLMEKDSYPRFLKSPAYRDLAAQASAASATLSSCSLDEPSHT
Target sequence (P09471 whole entry, looked up): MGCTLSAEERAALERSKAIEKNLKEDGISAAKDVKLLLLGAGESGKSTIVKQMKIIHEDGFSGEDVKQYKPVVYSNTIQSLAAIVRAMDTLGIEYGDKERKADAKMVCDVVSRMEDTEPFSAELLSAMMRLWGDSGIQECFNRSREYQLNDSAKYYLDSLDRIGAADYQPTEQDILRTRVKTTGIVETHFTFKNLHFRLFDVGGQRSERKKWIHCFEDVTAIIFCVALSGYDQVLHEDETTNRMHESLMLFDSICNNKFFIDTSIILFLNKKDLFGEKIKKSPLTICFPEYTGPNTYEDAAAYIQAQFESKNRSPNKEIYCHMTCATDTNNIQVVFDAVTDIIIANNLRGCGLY
INS promoter inh cell count: also measured in INS promoter inh; calls as there; normalized cell count, %; measured here: cell count, toxicity; reference of the scale not given here;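 cells exposed to compound for 48 h; stained nuclei by imaging scaled within each plate; lower means fewer cells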
HSV replic up primary fold: further read-out of HSV replic up, marked with its call; fold increase; compound at 10 µM; measured here: primary screen fold increase 10 uM; tested in PC3 cells;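 GFP signal in the first replicate; 1 = infected wells without compound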
Numbers without * were called inactive; i = inactive; x = not tested or not shown.

SMILES	PKD1 kinase inh	GALR2 agonist	HSV replic up	HSV replic up primary fold	INS promoter inh	INS promoter inh cell count	RGS16-Gao
O=C(NN=C(Cc1ccccc1)Cc1ccccc1)c1ccc(F)cc1	-3	0.9	i	0.99	-17	138	105
C=CCOc1c(CNc2ccc(C(=O)O)cc2)cccc1OCC	11	-0.1	i	1.1	-24	91	101
CCOC(=O)N1CCN(C(=O)COc2ccc(S(=O)(=O)NC3CCCCC3)cc2C)CC1	-6	-1.8	i	0.97	-69	113	100
CCN(Cc1ccccc1)S(=O)(=O)c1ccc2c(c1)NC(=O)CC(=O)N2	-10	x	i	1	-18	114	103
CC1=NC(=O)C(N=Nc2cccc3ccccc23)N1c1ccccc1 (stereo not given)	-10	-2.5	x	x	23	89	x
CCC1CCC2(CC1)NNC(=S)NN2	-4	-4.1	i	1	-14	100	96
CCN1C(=O)c2ccccc2Sc2ccc(C(=O)NCCCN3CCOCC3)cc21	-4	x	i	0.92	x	x	99
COc1ccccc1NC1SC(=O)N(c2ccccc2)C1=O (stereo not given)	-12	-1.4	i	0.94	x	x	100
COc1ccc(NC(=O)Nc2cccc(F)c2)c(OC)c1	-8	x	i	0.92	-29	137	105
COc1ccc(N(CC(=O)NCc2cccs2)S(=O)(=O)c2c(C)n[nH]c2C)cc1	0	-1.4	i	0.69	x	x	14*

Complete entries from above. Order of values: PKD1 kinase inh | GALR2 agonist | HSV replic up | HSV replic up primary fold | INS promoter inh | INS promoter inh cell count | RGS16-Gao
`O=C(NN=C(Cc1ccccc1)Cc1ccccc1)c1ccc(F)cc1` reads -3 | 0.9 | i | 0.99 | -17 | 138 | 105
`CC1=NC(=O)C(N=Nc2cccc3ccccc23)N1c1ccccc1` (stereo not given) reads -10 | -2.5 | x | x | 23 | 89 | x

Carrying on.
SMILES	PKD1 kinase inh	GALR2 agonist	HSV replic up	HSV replic up primary fold	INS promoter inh	INS promoter inh cell count	RGS16-Gao
CC(=O)N1CCN=C1SCc1ccc(F)cc1	-8	-2.0	i	1.2	x	x	196
C=C(C)CSc1nc2ccccc2[nH]1	3	-2.1	i	0.98	33	119	107
COc1ccc(NC(=O)c2cn(-c3ccccc3)nc2-c2cc3ccccc3o2)cc1	-7	-2.0	i	0.85	-7	78	101
O=C(O)c1cccc(CSc2nnc(Cc3ccccc3)o2)c1	-2	-0.2	i	1	-7	68	98
O=C(N/N=C/c1ccccc1)c1[nH]c2ccc(Br)cc2c1-c1ccccc1	-1	4.0	i	0.73	-47	29	100
CC(CN1CCCC(C(N)=O)C1)c1ccccc1 (stereo not given)	6	1.1	i	0.83	-16	133	103
COc1ccc(CN2CCN(C(=O)c3cccs3)CC2)cc1Br	-2	-0.4	i	0.92	-16	108	100
COc1ccccc1NS(=O)(=O)c1cc(NC(=O)c2sccc2C)ccc1N1CCCC1	-4	x	i	0.96	x	x	87
COc1cc(NC(=O)CN2C(=O)NC(C)(c3ccccc3)C2=O)c(C)cc1[N+](=O)[O-] (stereo not given)	-7	-1.1	i	0.93	x	x	99
Cc1ccnc(SCCn2c(N3CCC(C)CC3)nc3c2c(=O)[nH]c(=O)n3C)n1	5	-3.8	i	0.99	x	x	104

Looked up by structure from the list above:
SMILES	PKD1 kinase inh	GALR2 agonist	HSV replic up	HSV replic up primary fold	INS promoter inh	INS promoter inh cell count	RGS16-Gao
O=C(N/N=C/c1ccccc1)c1[nH]c2ccc(Br)cc2c1-c1ccccc1	-1	4.0	i	0.73	-47	29	100
CC(CN1CCCC(C(N)=O)C1)c1ccccc1 (stereo not given)	6	1.1	i	0.83	-16	133	103

Later entries.
SMILES	PKD1 kinase inh	GALR2 agonist	HSV replic up	HSV replic up primary fold	INS promoter inh	INS promoter inh cell count	RGS16-Gao
CC1C/C(=C/c2ccncc2)C(=O)/C(=C/c2ccncc2)C1 (stereo not given)	7	x	i	0.56	i	1	98
CCSc1nnc(NC(=O)NC(C)(C(F)(F)F)C(F)(F)F)s1	8	-1.3	i	0.83	31	156	92
CSc1cccc(NC(=O)CN(C)S(=O)(=O)c2ccc(F)cc2)c1	-1	-0.6	i	0.92	-3	121	104
O=C(Cn1cc2c(n1)CCCC2)NCCCN1CCCC1	2	-1.8	i	0.96	x	x	103
Cc1c(Br)c(C(F)(F)F)nn1CC(=O)N1CCCC1	3	-1.5	i	0.94	29	102	103
O=C(O)C1C2C=CC(C2)C1C(=O)NC1CCN(Cc2ccccc2)CC1 (stereo not given)	-3	-0.6	i	0.82	-29	58	100
CC1=CC(C)(C)Nc2ccc(OC(=O)CCN3C(=O)c4ccccc4C3=O)cc21	-7	1.7	i	1.1	-27	74	108
COC(=O)c1cc(-c2c(C)oc3cc(OC)ccc3c2=O)c(C)o1	-10	-1.9	i	0.91	x	x	104
Cc1cc(C)cc(-n2nc(C)cc2N)c1	2	-2.2	i	0.78	72*	130*	95
COc1cccc(/C=N/NC(=O)c2ccc(=O)n(C)c2)c1O	6	-0.2	i	0.74	-21	128	59
CCN(CC)S(=O)(=O)c1cccc(C(=O)Nc2cc3oc4ccccc4c3cc2OC)c1	-12	1.2	i	0.92	27	140	99
CCCc1cc(=O)[nH]c(SCC(=O)OCc2ccccc2)n1	-6	-0.5	i	1	43	127	104
OC(COCC1COc2ccccc2O1)CN1CCN(c2ccc(F)cc2)CC1 (stereo not given)	5	-0.4	i	0.99	x	x	101
CCSc1nc2c(cnn2-c2ccc(C)c(C)c2)c(=O)[nH]1	3	-2.4	i	0.97	x	x	79
CCOC(=O)c1cn(-c2ccccc2)nc1-c1cccnc1	1	0.7	i	1.2	x	x	97
Cc1c(C(=O)NC(C)C)sc2ncn(CC(=O)N3CCC(C)CC3)c(=O)c12	-6	-1.5	i	0.91	-36	64	105
CC(OC(=O)c1cccnc1)C(=O)Nc1ccc2c(c1)OCO2 (stereo not given)	-10	x	i	1	x	x	98
Cc1cc(C(=O)OCC(=O)c2ccc3c(c2)NC(=O)CO3)c2ccccc2n1	-4	-0.8	i	1.2	-2	108	100
Cc1cccc(N2CCN(c3ccc(NC(=O)/C=C(/C(=O)O)c4ccccc4)cc3)CC2)c1	-15	-0.2	i	1.2	x	x	84
Cc1ccc(NS(=O)(=O)c2cc(C(=O)O)ccc2Cl)cc1	2	-1.6	i	0.88	x	x	100
CC(=O)C1(O)C(C)CC2C3CCC4CC(O)CCC4(C)C3=CCC21C (stereo not given)	-6	-1.7	i	0.92	x	x	100
CS(=O)(=O)N(Cc1ccccc1)c1ccc(C(=O)Nc2ccccc2Sc2ccccc2)cc1	-5	-1.4	x	x	x	x	106
CCCn1ncc(CN2CCN(Cc3ccc(C)o3)C(CCO)C2)c1C (stereo not given)	x	x	i	0.96	x	x	100
COc1cccc(N2C(=O)CC(N3CCc4ccccc4C3)C2=O)c1 (stereo not given)	x	x	i	1.2	x	x	104
CC(C)NC(=O)Nc1n[nH]c(Nc2ccc(Cl)cc2)n1	x	x	i	1	x	x	89
c1cncc(-c2noc(CC3CCCCC3)n2)c1	-5	-2.5	i	0.83	20	73	2
CC(C)CN(CC(C)C)C(=O)C12CCC(C)(C(=O)O1)C2(C)C (stereo not given)	-12	-0.5	i	0.89	-5	89	76
O=[N+]([O-])c1ccc(N2CCCCC2)cc1NCCOc1ccccc1	2	-1.1	i	0.93	-8	47	73
CCOCC(=O)Nc1cc(S(=O)(=O)N2CCOCC2)ccc1N1CCCCC1	1	x	i	1.1	x	x	79
CCCCCC(=O)N1CC2(CC(c3cccc(NC(=O)[C@@H]4CCC(=O)N4)c3)=NO2)C[C@@H]1C(N)=O (stereo not given in full)	x	x	i	0.98	x	x	99
O=C(Nc1cccc(-c2cn3ccccc3n2)c1)C1CC1	-8	-2.4	i	0.68	-10	99	97
CCn1c(=O)cc(OCC(=O)NCc2ccc(C)o2)c2ccccc21	-5	0.5	i	0.95	-100	125	95
CCCc1nc2oc3c(NCC(C)O)ncnc3c2c2c1CCCC2 (stereo not given)	x	x	i	0.89	x	x	92
Cc1ccc(NC(=O)CN(C)C(=O)c2nn(C)c(=O)c3ccccc23)cc1	x	x	i	1.1	x	x	100
CCOC(=O)CS(=O)(=O)c1ccccc1	3	-3.8	i	1	0	119	106
O=C(NCCCn1ccnc1)c1ccc(Br)o1	-6	-1.7	i	1.2	-6	75	91
O=C(CSc1nc2ccccc2s1)CSc1nc2ccccc2s1	4	-1.4	i	0.8	-94	66	96
CCOC(=O)C1CCN(Cc2ccc(OC)c(C)c2OC)CC1	1	-1.8	i	0.7	x	x	101
Cc1cc2nncn2c(Cc2ccccc2)n1	-6	-1.7	i	0.93	24	100	105
CC(=O)C1=C(c2ccccc2)NC(=O)NC1c1ccc(O)c(O)c1 (stereo not given)	-1	x	i	1.1	x	x	102

Four entries from above, set out differently.
> COC(=O)c1cc(-c2c(C)oc3cc(OC)ccc3c2=O)c(C)o1
  PKD1 kinase inh = -10
  GALR2 agonist = -1.9
  HSV replic up = i
  HSV replic up primary fold = 0.91
  INS promoter inh = x
  INS promoter inh cell count = x
  RGS16-Gao = 104
> CCOC(=O)N1CCN(C(=O)COc2ccc(S(=O)(=O)NC3CCCCC3)cc2C)CC1
  PKD1 kinase inh = -6
  GALR2 agonist = -1.8
  HSV replic up = i
  HSV replic up primary fold = 0.97
  INS promoter inh = -69
  INS promoter inh cell count = 113
  RGS16-Gao = 100
> O=[N+]([O-])c1ccc(N2CCCCC2)cc1NCCOc1ccccc1
  PKD1 kinase inh = 2
  GALR2 agonist = -1.1
  HSV replic up = i
  HSV replic up primary fold = 0.93
  INS promoter inh = -8
  INS promoter inh cell count = 47
  RGS16-Gao = 73
> COc1ccc(N(CC(=O)NCc2cccs2)S(=O)(=O)c2c(C)n[nH]c2C)cc1
  PKD1 kinase inh = 0
  GALR2 agonist = -1.4
  HSV replic up = i
  HSV replic up primary fold = 0.69
  INS promoter inh = x
  INS promoter inh cell count = x
  RGS16-Gao = 14*

The list continues:
SMILES	PKD1 kinase inh	GALR2 agonist	HSV replic up	HSV replic up primary fold	INS promoter inh	INS promoter inh cell count	RGS16-Gao
Cc1cc(C)c(C(=O)C2OC(=O)C(C)(C)C(=O)C2(C)C)c(C)c1 (stereo not given)	5	-1.6	i	0.95	x	x	107
COc1cccc(-c2nnc(-c3ccc(C)o3)o2)c1	-6	-1.0	i	0.97	-15	104	x
CC1Cc2nc(SCC(=O)Nc3ccc4c(c3)OCO4)n(Cc3ccccc3)c(=O)c2S1 (stereo not given)	-4	-0.4	i	0.92	-220	70	96
COCC(C)NC(=O)CSc1nnc(-c2cccc(S(=O)(=O)N3CCCCC3)c2)o1 (stereo not given)	1	x	i	0.99	20	100	103
CCCSc1nc(C)cc(C)c1S(=O)(=O)c1ccccc1C	14	-1.5	x	x	-7	95	94
COC(=O)c1cc(-c2ccc(OC)c(OC)c2)on1	-5	-1.1	i	0.96	23	64	116
COc1ccc(NC(=O)/C(=C/c2cccs2)NC(=O)c2ccco2)cc1	x	x	i	1	x	x	107
COc1ccc(N(C(=O)CNC(=O)c2ccco2)C(C(=O)NC2CCCC2)c2ccncc2)cc1 (stereo not given)	-8	x	i	1	x	x	97
CN1CCN(S(=O)(=O)c2cccc(C(=O)NCc3ccc(Cl)cc3)c2)CC1	-5	x	i	0.98	-87	76	148
O=C(CSCc1ccccc1)Nc1ccccc1C(=O)Nc1ccc(C(=O)O)cc1	x	x	i	0.99	x	x	72
CN(C)S(=O)(=O)c1ccc(C(=O)OCC(=O)Nc2ccc(OC(F)F)cc2)cc1	x	x	i	0.92	x	x	105
CC(C)(C)c1nn(-c2ccccc2)c2[nH]c(=O)c(CNc3ccc4c(c3)OCCO4)cc12	2	-1.4	i	0.97	16	154	103
COc1ccc(C2CC(c3ccc(F)cc3)n3nc(NS(C)(=O)=O)nc3N2)cc1 (stereo not given)	x	x	i	0.96	x	x	110
CCOC(=O)C1=NN(C(=O)c2ccc(C)cc2)C(O)(c2ccc(Cl)cc2)C1 (stereo not given)	-6	-1.2	i	1	-29	59	99
CCOc1ccsc1C(=O)OC	x	x	i	1.2	x	x	100
CC(C)(C)OC(=O)N[C@@H](Cc1ccccc1)c1nnc(S(=O)(=O)Cc2ccccc2)o1	-10	2.1	i	0.55	46	92	93
COc1cc(/C=N/NC(=O)CCC(=O)NC2CCCCC2)ccc1C	3	x	i	1	x	x	103
COc1ccc(N(CC(=O)NCc2ccccc2)S(=O)(=O)c2c(C)nn(C)c2C)cc1	-2	-0.8	i	0.73	x	x	96
Cc1ccc(-c2noc(-c3ccccc3C(=O)NCC3CCCO3)n2)cc1 (stereo not given)	-9	-2.0	i	0.95	14	72	102
COc1cc(/C=N/N2C(C)CCCC2C)cc(Br)c1O (stereo not given)	4	x	i	1	x	x	104
COc1ccc(C(=O)/C=C/Nc2ccccn2)cc1	0	0.0	i	0.93	52	151	97
Cn1nc(C(F)(F)F)c(-c2ccc(Br)cc2)c1NC(=O)c1ccco1	x	x	i	1.1	x	x	92
